Compound activity deposited in PubChem by several laboratories.
PABP polyA inh = PABP poly(A) RNA binding inhibitors, primary screen, biochemical, fluorescence polarization, uHTS. Polyadenylate-binding protein 1 (Homo sapiens), P11940. inhibition, % at 35 µM. 290,000 compounds, 1% hits. AID 2014, 2009;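 active means 50% or more with normal probe brightness, or confirmed in later tests; inconclusive means above 50% with abnormal brightness, or retests that disagree; inactive means below 50% or failed in later tests; about a fifth of its hits are not listed in these tables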;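 further: calls also rest on retests at 20 µM and on dose response follow-up; controls were probe without protein and protein plus probe with vehicle; some compounds called inactive have numbers as strong as hits; many hits fall short of the cut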
Target sequence (P11940 whole entry, looked up): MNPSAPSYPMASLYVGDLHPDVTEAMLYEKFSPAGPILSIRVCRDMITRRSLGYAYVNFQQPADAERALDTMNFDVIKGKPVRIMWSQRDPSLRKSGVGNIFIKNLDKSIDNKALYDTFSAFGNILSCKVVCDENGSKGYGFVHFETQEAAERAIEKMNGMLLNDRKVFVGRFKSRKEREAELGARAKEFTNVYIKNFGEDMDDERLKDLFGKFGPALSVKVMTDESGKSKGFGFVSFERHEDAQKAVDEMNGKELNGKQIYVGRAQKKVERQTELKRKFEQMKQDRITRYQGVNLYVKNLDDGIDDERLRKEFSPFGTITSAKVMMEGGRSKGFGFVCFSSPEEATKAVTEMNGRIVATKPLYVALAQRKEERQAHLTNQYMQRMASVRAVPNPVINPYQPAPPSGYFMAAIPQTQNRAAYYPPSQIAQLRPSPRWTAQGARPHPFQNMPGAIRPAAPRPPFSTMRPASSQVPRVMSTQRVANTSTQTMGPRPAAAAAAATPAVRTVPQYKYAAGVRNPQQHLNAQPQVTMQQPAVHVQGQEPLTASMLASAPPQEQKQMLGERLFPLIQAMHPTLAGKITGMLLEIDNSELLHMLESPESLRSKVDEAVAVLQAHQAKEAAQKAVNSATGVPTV
MT1-MMP act inh = blockers of MT1-MMP proenzyme processing, primary screen, HT1080 RFP-PRO-GFP cells, GFP/RFP fluorescence. GFP/RFP ratio fluorescence, overnight; percent of plate control window, DMSO zero. GFP/RFP ratio change, % at 20 µM. 360,000 compounds, 0.061% hits;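 active means GFP/RFP ratio change of at least 30% with cell ATP level not reduced by more than half and red fluorescence within 50% of control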; further: strong numbers were not always called active
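Compound: 20 µM single dose, 1% DMSO / System: HT1080 RFP-PRO-GFP cells / Controls: DMSO and RFP-L50D-GFP cell wells / Read-out basis: GFP/RFP fluorescence ratio / Schedule: overnight compound exposure at 37 °C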
CSC inhib = cancer stem cell viability inhibitors, primary screen, luminescence; inhibition, % at 7.5 µM; cancer stem cell-like cells viability; 300,000 compounds, 1.1% hits; AID 2717, 2010;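 active means mean at 75% or more and at least half the replicates too; inconclusive means mean and replicates disagree; tested in HMLE shEcad cells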;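 further: 0% = median of negative and 100% = median of positive control wells; the first replicate is given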
eIF4H FP inh = human eIF4H binding inhibitors, primary screen, translation initiation inhibitor project, biochemical, uHTS, fluorescence polarization; Eukaryotic translation initiation factor 4H (Homo sapiens), Q15056; eIF4H fluorescence polarization binding assay; inhibition, % at 35 µM; 290,000 compounds, 0.94% hits;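 active means 50% or more with normal probe brightness, or confirmed in later tests; inconclusive means above 50% with abnormal brightness, or retests that disagree; inactive means below 50% or failed in later tests; about a fifth of its hits are not listed in these tables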;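 further: calls also rest on retests at 20 µM and on dose response follow-up; 0% = protein and probe with vehicle and 100% = probe without protein; strong numbers were not always called active; many hits fall short of the cut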
UUG fidelity = modulators of yeast start codon fidelity, primary screen, whole organism, S. cerevisiae, single point, plate reader. S. cerevisiae UUG-firefly luciferase reporter, luminescence/redox ratio. 350,000 compounds, 0.13% hits. AID 602363, 2012. activity score, % at 18.7 µM;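 active means replicate mean at a twofold rise or more, about +100% in these data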;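 further: firefly luciferase made from a UUG start codon reports start codon fidelity; reporter light over untreated wells divided by growth signal over untreated wells; some hits fall short of that in this replicate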
Rce1 inh = yeast Rce1p protease inhibitors, primary screen, biochemical, fluorescence, cell-free homogeneous. CAAX prenyl protease 2 (Saccharomyces cerevisiae (strain ATCC 204508 / S288c)), Q03530. yeast membranes, quenched prenylated peptide cleavage fluorescence. calls only. 290,000 compounds, 0.27% hits. AID 2563, 2010;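 active means fall in fluorescence gain of 50% or more versus controls, with final raw signal at or below 3038400; inconclusive means same 50% fall but final raw signal above 3038400; inactive means fall in fluorescence gain under 50%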;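 further: plate controls were neutral control wells for no effect and wells lacking membranes for full effect; tested at 10 µM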
HIV Env fusion = inhibitors of HIV-1 Env-driven cell-cell fusion, primary screen, HeLa-JRFL effector, CEM21 target cells, luciferase; inhibition, % at 12.3 µM; 360,000 compounds, 1.1% hits;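 active means mean replicate inhibition score of at least 50 and every replicate individually at or above 50; inconclusive means only one of the two criteria met; inactive means mean below 50 and not all replicates reaching 50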;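 further: 0% = plate neutral controls and 100% = maraviroc near 300 nM; one replicate is shown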
MT1-MMP act inh RFP = recorded beside MT1-MMP act inh, whose call it bears; RFP signal change, %; measured here: RFP expression control read;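 0 = vehicle wells; hits needed this value within 50% of zero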
An asterisk follows results filed as active; i = inactive; ? = inconclusive; . = not tested or not shown; [ ] = dose if it differs, or a comment. Not all compounds are listed; count on the stated rates, not on these rows.

SMILES | PABP polyA inh | MT1-MMP act inh | MT1-MMP act inh RFP | CSC inhib | eIF4H FP inh | UUG fidelity | Rce1 inh | HIV Env fusion
COc1ccc(NC(=O)Cc2c[nH]c3ccccc23)cc1S(=O)(=O)N1CCCCC1 | -6.0 | -1.5 | -5.1 | -7.4 | 2.1 | 15.7 | i | 4.5
O=C(Cn1cc(C(F)(F)F)ccc1=O)N/N=C/c1cccc(Cl)c1Cl | 18.9 | 0.5 | 0.7 | 7.3 | 10.6 | 0.0 | i | -18.7
CCCCC(C(=O)NC1CCCC1)N(Cc1ccco1)C(=O)Cn1nnc(-c2ccc(F)cc2)n1 (centres undefined) | 3.4 | -19.3 | -16.7 | 4.0 | 5.5 | -1.2 | i | .
CC(C)n1nc(C(=O)Oc2cc(Cl)ccc2Cl)c2ccccc2c1=O | 0.2 | 1.5 | 5.3 | 0.4 | -7.3 | -15.5 | i | 19.9
Cc1cccc(C)c1N=Cc1c(O)n(-c2nccs2)c(=O)c2ccccc12 | 2.6 | -5.8 | -4.5 | 4.5 | -4.2 | -13.2 | i | .
CC(C)Sc1nnc([C@@H]2CCCN2C(=O)OC(C)(C)C)o1 | -6.6 | 4.5 | 0.6 | -5.9 | -2.7 | -1.9 | i | .
CCOc1ccc(/C=N/NC(=O)c2csc(C)c2C)c(OCC)c1 | 4.3 | 1.9 | 4.6 | -10.0 | 6.8 | -6.5 | i | .
CC(=O)N1CCN(c2ccc(NC(=O)c3cccc(C)c3)cc2)CC1 | 8.0 | 2.7 | -0.5 | -8.2 | 6.5 | -6.3 | i | -16.5
CCc1noc(C)c1C(=O)N(C)CC(=O)Nc1ccc(Br)cc1C | . | 0.5 | 2.7 | 4.4 | . | -6.8 | i | 2.3
CCOC(=O)CSC1=C(C#N)C(c2ccccc2C)C2=C(CCCC2=O)N1 (centres undefined) | -1.3 | -7.6 | -5.1 | -10.2 | 1.9 | -24.2 | i | .
COc1ccc(C)cc1S(=O)(=O)NC1CCCCCC1 | -2.0 | 0.4 | -1.7 | 10.0 | -7.9 | -4.6 | i | -11.5
Cc1ccc(C)c(S(=O)(=O)N2CCCOC2CNC(=O)C(=O)NCc2cccs2)c1 (centres undefined) | -9.5 | -0.4 | 1.3 | 3.6 | -3.5 | -13.3 | i | -8.0
O=C(Cn1cnc2c(oc3ccccc32)c1=O)N1CCN(c2ccccc2)CC1 | 6.3 | 2.6 | 4.3 | -11.0 | 0.8 | -14.1 | i | -100.5
Cc1cc(C(=O)N2CCN(S(=O)(=O)c3ccc(F)c(Cl)c3)CC2)c(C)o1 | . | -3.0 | -3.3 | -24.2 | . | -6.2 | . | .
CCN(CC)C(=O)c1cccc(-c2csc(C(C)(NC(C)=O)c3ccc(OC)cc3)n2)c1 (centres undefined) | . | 1.8 | 3.7 | . | . | 5.0 | . | 20.4
CCc1nnc(NC(=O)c2ccc(F)c(S(=O)(=O)N3CCCCC3)c2)s1 | -0.5 | -0.7 | -19.7 | . | 0.1 | -19.7 | i | -24.8
N#Cc1c(N2CCCC2)ccc(Br)c1Cl | 7.9 | -5.1 | -0.7 | 0.9 | -1.7 | . | . | -9.9
COc1ccc(/C=C2/S/C(=N/S(=O)(=O)Cc3ccccc3)NC2=O)cc1OC | -13.3 | -9.9 | -3.2 | 7.0 | 0.4 | . | i | -13.5
CC(C)Cc1nc2sc3c(c2c(=O)n1N)CC(C(C)C)OC3 (centres undefined) | 1.0 | 5.4 | -7.8 | 35.8 | 3.5 | -1.7 | i | -2.4
Cc1nn2c3ccccc3n(Cc3ccccc3)c2nc1=O | -19.0 | -0.5 | 0.9 | -13.3 | 3.5 | -0.6 | i | -3.8
CNC(=O)c1ccc(=O)n(Cc2cccc(C(F)(F)F)c2)c1 | 13.1 | -4.8 | -1.3 | 0.1 | -4.1 | -11.1 | i | 1.4
O=C(CN(Cc1ccc(Cl)c(Cl)c1)S(=O)(=O)c1ccccc1)N/N=C\c1ccc2c(c1)OCO2 | -0.5 | -1.2 | -7.2 | 41.1 | 9.7 | -0.2 | i | .
Cc1c(C)c2cc(Cl)c(O)c(CN3CCCCC3)c2oc1=O | 7.9 | . | . | -13.3 | -7.0 | . | i | .
O=C1CN(C(=O)COC(=O)C23CC4CC(CC(O)(C4)C2)C3)c2ccccc2N1 | 5.4 | -8.6 | -8.8 | 4.8 | 5.4 | 2.1 | i | -60.0
Cc1ccc(S(=O)(=O)N2CCC(C(=O)OCC(=O)N3CCC(C)CC3)CC2)cc1C | . | -2.8 | 3.5 | -3.6 | . | -3.9 | i | -3.1
CCc1nnc(NC(=O)Cc2c[nH]c3ccccc23)s1 | 1.0 | 0.1 | 3.9 | 7.8 | 8.5 | . | i | 11.7
Oc1[nH]c2ccccc2c1N=NC(=S)NCC1CCCO1 (centres undefined) | -4.9 | 2.6 | 0.7 | -3.3 | 22.6 | . | i | .
CCn1c(SCC(=O)NC2CCCCC2C)nnc1-c1ccc(OC)cc1 (centres undefined) | 7.5 | 7.9 | 5.1 | -13.9 | -4.8 | -10.5 | i | -9.0
NC(=O)c1ccsc1NC(=O)CN1C(=O)NC2(CCCCC2)C1=O | . | 5.7 | -0.9 | 1.9 | . | -14.4 | . | 7.7
Cc1nnc(SCC(=O)c2c(N)n(C)c(=O)n(C)c2=O)[nH]c1=O | -0.3 | -3.0 | 1.3 | -20.3 | -4.6 | -9.4 | i | .

Just UUG fidelity and Rce1 inh, for some of the entries so far:
smiles	UUG fidelity	Rce1 inh
CCc1nnc(NC(=O)Cc2c[nH]c3ccccc23)s1	.	i
Oc1[nH]c2ccccc2c1N=NC(=S)NCC1CCCO1 (centres undefined)	.	i

Following part
SMILES | PABP polyA inh | MT1-MMP act inh | MT1-MMP act inh RFP | CSC inhib | eIF4H FP inh | UUG fidelity | Rce1 inh | HIV Env fusion
O=C(CSc1nnc2c(Cl)cc(C(F)(F)F)cn12)N(Cc1ccccc1)Cc1ccccc1 | -5.9 | 3.5 | 3.1 | -15.4 | -11.5 | . | i | -7.9
Cc1ccc(S(=O)(=O)N2C[C@H]3C(=O)C[C@@H](c4ccccc4F)N(S(=O)(=O)c4ccc(C)cc4)[C@H]3C[C@H]2c2ccccc2)cc1 | . | -10.3 | -9.3 | . | . | -8.1 | . | -28.4
CC(=O)N(c1ccc(Cl)cc1)c1nc(C)cc(C)c1C#N | -2.4 | 2.9 | 6.1 | 9.9 | -11.0 | . | i | 3.9
Cc1nc2ncnn2c(C)c1CCC(=O)O | -8.7 | -0.8 | 2.0 | 9.5 | 2.5 | -2.2 | i | -4.4
CCOc1ccccc1NC(=O)CN1CCC(NC(=O)c2ccccc2C)CC1 | 4.6 | 4.7 | -0.3 | . | 3.5 | -7.1 | i | 6.2
COCCNc1nc(NCc2ccccc2OC)c2sccc2n1 | . | 8.1 | -14.8 | . | . | 2.1 | . | 13.1
Cc1ccc(S(=O)(=O)NCC(=O)N(CC(=O)NC(C)(C)C)Cc2ccc3c(c2)OCO3)cc1 | -2.4 | 1.7 | 3.2 | 4.4 | -8.4 | -12.6 | i | 1.1
COc1ccc(C2CC(c3cccc(Br)c3)=NN2c2ccc(S(N)(=O)=O)cc2)cc1 (centres undefined) | . | -3.1 | -1.2 | . | . | -10.8 | . | -14.4
Cc1ccc(C(C[N+](=O)[O-])c2c(C)[nH]n(-c3ccccc3)c2=O)cc1 (centres undefined) | 0.9 | . | . | -2.4 | -8.2 | -24.4 | i | -2.1
Cc1cc(NS(=O)(=O)c2ccc(NC(=O)COc3c(C)cc(Br)cc3C)cc2)no1 | -1.9 | 2.2 | 7.2 | 7.8 | -3.3 | -8.0 | i | -7.0
CC(C)(C)c1cc(NC(=O)c2cccc(S(=O)(=O)N3CCOCC3)c2)no1 | 6.0 | 3.1 | -3.0 | -12.9 | 7.8 | 6.2 | i | -390.1
C[C@H](CO)N1C[C@H](C)[C@H](CN(C)C(=O)c2ccncc2)OCc2ccccc2-c2c(n(C)c3ccccc23)C1=O | . | -4.7 | 2.7 | . | . | 3.2 | . | 59.8*[16.7 µM]
CN(C)C(=O)COn1c(SCC(=O)N(C)C)nc2ccccc2c1=O | -6.2 | 2.7 | 3.7 | -12.6 | 3.8 | -7.7 | i | -52.2
O=C(Nc1cccc2ncccc12)c1ccco1 | 34.4 | 0.0 | -0.6 | 23.7 | 4.5 | -16.5 | i | 3.4
COc1cccc(N(CC(=O)NCc2ccco2)C(=O)CCC(=O)Nc2nccs2)c1 | -7.6 | -3.1 | -3.5 | . | 3.5 | -23.7 | i | 10.7
CC(C#N)On1c(SC(C)C#N)nc2ccccc2c1=O (centres undefined) | -7.3 | 3.7 | 3.4 | 6.6 | -2.1 | -12.5 | . | -83.4
Cc1ccc(C(=O)NCC(=O)OCC(=O)c2ccc(C)c([N+](=O)[O-])c2)cc1 | 4.6 | 1.3 | 7.7 | -1.3 | 0.6 | . | i | .
CCCCOC(=O)Cn1c(=O)oc2ccc(C)cc21 | -10.1 | 0.9 | 1.4 | -8.2 | -0.5 | -3.9 | i | 27.1
O=C(Nc1nc2ccccc2s1)c1ccc(F)cc1 | -6.2 | 1.6 | -10.0 | 2.5 | -10.5 | -24.9 | i | -154.2
CCOC(=O)C1CCCN(C/C=C/c2ccccc2)C1 (centres undefined) | -0.5 | -1.1 | -2.0 | -13.4 | -6.9 | -26.2 | i | 9.0
C=CCNC(=O)COc1ccc(Oc2ccccc2)cc1 | 27.8 | 1.0 | -5.3 | -6.3 | -15.9 | . | i | 0.7
Cc1csc(NC(=O)c2ccc(C)s2)n1 | . | -3.3 | 0.4 | 11.5 | . | -22.8 | i | -31.7
Cc1nc(C)c(C(=O)OCC(=O)NCc2ccccc2Cl)s1 | . | -1.1 | 6.7 | -12.1 | . | 20.4 | . | -12.1
COCc1cc(N2CCCC2)nc(-c2ccccc2)n1 | 11.4 | -1.6 | -3.4 | -7.9 | -2.6 | -17.9 | . | -11.6
O=C(NCCCn1ccnc1)C(Cc1ccc([N+](=O)[O-])cc1)N1C(=O)c2ccccc2C1=O (centres undefined) | ? | -0.3 | 2.8 | -9.4 | -10.1 | -18.5 | i | .
O=[N+]([O-])c1ccc(CN2CC(N3CCN(CCO)CC3)CS2(=O)=O)cc1 (centres undefined) | . | 2.4 | 6.1 | . | . | -9.7 | . | -14.5
COc1ccccc1/C=C(/NC(=O)c1ccccc1)C(=O)NCCCn1ccnc1 | 1.9 | -1.1 | -8.0 | -4.8 | 2.6 | -12.5 | i | -8.2
Cc1cc(=O)n(CC(=O)NC2CC2)c2c1c(C)nn2-c1ccccc1 | 6.8 | -3.2 | -1.4 | 10.4 | -4.0 | -28.2 | i | .
CCCN(CC(=O)Nc1ccccc1C)C(=O)c1ccc(N2CCCC2)c([N+](=O)[O-])c1 | . | -3.0 | -3.8 | -12.3 | . | -5.1 | i | -13.8
Cc1oc2ccc(NS(=O)(=O)c3ccc(C(C)(C)C)cc3)cc2c1C(=O)Nc1ccccc1 | -5.9 | -5.0 | -12.7 | 7.8 | -8.9 | -5.9 | i | .
